From PubChem BioAssay
Vaccinia inh = Vaccinia orthopox stage-specific inhibition | Vaccinia-infected cells, mCherry/Venus stage reporter fluorescence; hits give low values; some inactives read as strong as hits | activity change (mCherry), % (concentration not given with the values) | actives 0.01% (n = 89,000) | AID 1053133;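 active means mCherry past -33% and 40 or more points under the early reporter, replicates agreeing; inconclusive means past -33% without that gap or agreement; tested in A549 cells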;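 further: scaled between vehicle wells and reference inhibitor wells; 23 nL library stock went into each well; one replicate is shown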
Vaccinia inh Venus = further read-out of Vaccinia inh, marked with its call; activity change (Venus), %; measured here: Venus reporter, other viral stage;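 negative = less Venus signal; first of two replicates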
Active calls of the source: *; ? = inconclusive; nt = not tested or not shown; & = joins results of further samples. A portion of the library; rates above refer to the full screens.

Start of the data: the first 5 compounds, to show the layout:
Structure,Vaccinia inh,Vaccinia inh Venus
CN(C)CCCNC(=O)C[C@H]1CC[C@H]2[C@@H](COC[C@@H](O)CN2CC2CCCC2)O1,-0.1,1.7
Cc1ccccc1-c1cnc2c(c1)C(=O)N([C@H](C)CO)C[C@@H](C)[C@@H](CN(C)C(=O)c1cccnc1)O2,-10.3,-7.1
CO[C@@H]1CN(C)C(=O)c2cc(NC(=O)c3cnccn3)ccc2OC[C@H](C)N(C(=O)C2CC2)C[C@@H]1C,-4.7,-2.7
CCC(=O)Nc1ccc2c(c1)C(=O)N(C)C[C@H](OC)[C@@H](C)CN(Cc1cccc(F)c1)[C@@H](C)CO2,1.9,0.4
COc1ccc(S(=O)(=O)Nc2ccc3c(c2)CC(=O)N([C@@H](C)CO)C[C@@H](C)[C@H](CN(C)C)O3)cc1,10.3,-2.5

The list itself, from the first entry:
Structure,Vaccinia inh,Vaccinia inh Venus
CN(C)CCCNC(=O)C[C@H]1CC[C@H]2[C@@H](COC[C@@H](O)CN2CC2CCCC2)O1,-0.1,1.7
Cc1ccccc1-c1cnc2c(c1)C(=O)N([C@H](C)CO)C[C@@H](C)[C@@H](CN(C)C(=O)c1cccnc1)O2,-10.3,-7.1
CO[C@@H]1CN(C)C(=O)c2cc(NC(=O)c3cnccn3)ccc2OC[C@H](C)N(C(=O)C2CC2)C[C@@H]1C,-4.7,-2.7
CCC(=O)Nc1ccc2c(c1)C(=O)N(C)C[C@H](OC)[C@@H](C)CN(Cc1cccc(F)c1)[C@@H](C)CO2,1.9,0.4
COc1ccc(S(=O)(=O)Nc2ccc3c(c2)CC(=O)N([C@@H](C)CO)C[C@@H](C)[C@H](CN(C)C)O3)cc1,10.3,-2.5
COc1ccc(NC(=O)Nc2ccc3c(c2)C(=O)N([C@@H](C)CO)C[C@@H](C)[C@H](CN(C)CC2CCCCC2)OCCCC[C@H](C)O3)cc1,?,nt
CC(=O)N1CC2(C1)[C@@H](c1ccc(-c3cccc(C#N)c3)cc1)[C@@H](CO)N2CCC(F)(F)F,-7.6,-4.9
O=C(C[C@@H]1CC[C@H](NC(=O)c2ccc3c(c2)OCO3)[C@H](CO)O1)NCc1ccc(Oc2ccccc2)cc1,-20.7,-11.8
O=C(O)c1ccccc1CN1C[C@H]2O[C@H](CNS(=O)(=O)c3ccc(Cl)cc3)CC[C@H]21,23.2,26.7
C[C@@H]1CN([C@@H](C)CO)C(=O)c2cccc(NS(=O)(=O)c3cn(C)cn3)c2O[C@@H]1CN(C)Cc1ccc(Cl)c(Cl)c1,16.0,3.8
C[C@H]1CCCCO[C@H](CN(C)S(=O)(=O)c2cn(C)cn2)[C@@H](C)CN([C@@H](C)CO)C(=O)c2cc(NS(=O)(=O)c3ccccc3)ccc2O1,9.9,8.9
CC(C)C#Cc1ccc([C@@H]2[C@H]3CN(C(=O)C4CCCCC4)CC(=O)N3[C@H]2CO)cc1,-10.1,-26.3
C[C@@H]1CN([C@@H](C)CO)C(=O)c2cc(NS(C)(=O)=O)ccc2O[C@@H]1CN(C)C(=O)Nc1ccccc1,11.0,6.5
CCC(=O)N1C[C@@H](C)[C@@H](OC)CN(C)C(=O)c2cc(NC(=O)CC(F)(F)F)ccc2OC[C@@H]1C,18.2,13.3
C[C@@H]1CN([C@@H](C)CO)S(=O)(=O)c2ccc(-c3cncnc3)cc2O[C@H]1CN(C)C(=O)c1ccc2c(c1)OCO2,11.9,5.2
O=C(NCC1CCCCC1)[C@@H]1N[C@@H]2c3ccc(-c4ccccc4F)c(=O)n3C[C@@H]2[C@H]1CO,-8.2,4.9
COc1ccc(-c2ccc(C3[C@H]4CNC[C@@H]3N4Cc3cccc(OC)c3)cc2)cc1 (some centres undefined),-25.2&-17.1,-20.7&-11.9
CCC(=O)N1C[C@@H](C)[C@H](OC)CN(C)C(=O)c2cc(NC(=O)C3CCCCC3)ccc2OC[C@@H]1C,6.3,8.9
CC(C)CC#Cc1ccc2c(c1)O[C@H](CN(C)S(=O)(=O)c1cccc(F)c1)[C@@H](C)CN([C@H](C)CO)S2(=O)=O,-2.2,-4.5
CC(C)NC(=O)N1[C@H](CO)[C@H](c2ccccc2)C12CN(C(=O)Cc1cccnc1)C2,7.7,8.9
CO[C@H]1CN(C)C(=O)c2ccc(NS(=O)(=O)c3cccc(F)c3)cc2OC[C@H](C)N(C(=O)Cc2cccnc2)C[C@@H]1C,4.8,5.1
CO[C@@H]1CN(C)C(=O)c2ccc(NC(=O)C3CCCC3)cc2OC[C@H](C)NC[C@@H]1C,3.5,0.9
CCC(=O)Nc1ccc2c(c1)C(=O)N(C)C[C@@H](OC)[C@@H](C)CN(Cc1ccccc1)[C@@H](C)CO2,-1.6,9.0
C[C@H]1CCCCO[C@@H](CN(C)C(=O)NC2CCCCC2)[C@@H](C)CN([C@@H](C)CO)C(=O)c2cc(NS(=O)(=O)c3ccccc3)ccc2O1,?,nt
COCC#Cc1ccc([C@H]2[C@H](CO)N3CCCCN(C(=O)Cc4ccccn4)C[C@@H]23)cc1,13.0,3.5
C[C@H](CO)N1C[C@H](C)[C@@H](CN(C)C(=O)Nc2cccc3ccccc23)Oc2ccc(NC(=O)Nc3ccc4c(c3)OCO4)cc2CC1=O,16.5,18.1
CCNC(=O)C[C@H]1CC[C@@H]2[C@@H](COc3ccc(NC(=O)Cc4ccccc4)cc3C(=O)N2C)O1,11.6,8.6
C[C@H]1CN([C@@H](C)CO)C(=O)CCCn2nncc2CO[C@H]1CN(C)Cc1ccccc1C(=O)O,9.9,2.7
CO[C@H]1CN(C)C(=O)c2cc(NC(=O)C3CC3)ccc2OC[C@H](C)N(C)C[C@H]1C,0.3,-4.9
COc1ccc(NC(=O)N(C)C[C@H]2Oc3ccc(NC(=O)Nc4ccccc4)cc3C(=O)N([C@@H](C)CO)C[C@H]2C)cc1,9.8,8.2

(next part)
Structure,Vaccinia inh,Vaccinia inh Venus
CC=Cc1ccc2n(c1=O)C[C@@H]1[C@@H](CO)[C@H](C(=O)NCc3ccccn3)[C@H]2N1C (mixture of isomers),5.3,12.3
C[C@H](CO)N1C[C@H](C)[C@H](CN(C)S(C)(=O)=O)Oc2cc(Br)ccc2S1(=O)=O,12.7,11.0
COc1ccccc1CNC(=O)C[C@H]1C[C@H]2c3cc(NC(=O)C4CCC4)ccc3O[C@H]2[C@@H](CO)O1,-1.1,2.6
COc1ccc(NC(=O)N(C)C[C@H]2OCCCC[C@@H](C)Oc3ccc(NS(=O)(=O)c4ccc(F)cc4)cc3C(=O)N([C@@H](C)CO)C[C@@H]2C)cc1,-15.1,-14.9
c1ncc(-c2ccc(C3[C@@H]4CN(Cc5ccc6c(c5)OCO6)C[C@H]3N4)cc2)cn1 (some centres undefined),?,-33.3
CN1C[C@@H]2[C@H](c3ccccc31)[C@@H](CO)N2C(=O)C1CCOCC1,6.4,11.9
C[C@@H]1CCCCO[C@@H](CN(C)C(=O)Nc2ccc(F)cc2)[C@@H](C)CN([C@@H](C)CO)C(=O)c2cc(NC(=O)CCC(F)(F)F)ccc2O1,-2.7,-7.8
O=C(NCCn1cc(CN2C(=O)COC[C@H]2c2ccccc2)nn1)Nc1ccccc1,19.9,9.7
C[C@@H]1CCCCO[C@@H](CN(C)C(=O)CCCN(C)C)[C@@H](C)CN([C@H](C)CO)C(=O)c2cc(NS(=O)(=O)c3ccc(Cl)cc3)ccc2O1,16.9,11.6
CO[C@H]1CN(C)C(=O)c2ccc(NS(=O)(=O)c3ccccc3)cc2OC[C@H](C)N(C(=O)NC(C)C)C[C@@H]1C,-7.6,-10.5
CCCC(=O)Nc1ccc2c(c1)OC[C@@H](C)N(Cc1nccs1)C[C@@H](C)[C@H](OC)CN(C)C2=O,5.2,-6.9
Cc1noc(C)c1NC(=O)N(C)C[C@@H]1Oc2ncc(C#CCC(C)C)cc2C(=O)N([C@H](C)CO)C[C@H]1C,23.1,3.3
C[C@H]1CN([C@@H](C)CO)C(=O)c2cc(NC(=O)C3CC3)ccc2O[C@@H]1CN(C)S(=O)(=O)c1ccc(F)cc1,5.3,-0.8
CO[C@H]1CN(C)C(=O)c2cc(NC(=O)Nc3ccccc3F)ccc2OC[C@@H](C)NC[C@H]1C,-5.1,4.8
Cc1noc(C)c1NC(=O)Nc1ccc2c(c1)C(=O)N([C@H](C)CO)C[C@@H](C)[C@H](CN(C)C(=O)Nc1ccc(C(F)(F)F)cc1)O2,8.9,1.7
C[C@H]1CN([C@@H](C)CO)C(=O)Cc2cc(NC(=O)CCCN(C)C)ccc2O[C@@H]1CN(C)C(=O)Nc1ccc2c(c1)OCO2,-12.6,-15.0
O=C(C[C@@H]1CC[C@H]2[C@@H](COC[C@@H](O)CN2C(=O)Nc2cc(Cl)cc(Cl)c2)O1)N1CCCCC1,-5.9,-10.8
Cc1noc(C)c1S(=O)(=O)N(C)C[C@@H]1OCCCC[C@@H](C)Oc2ccc(NS(=O)(=O)c3ccc(Cl)cc3)cc2C(=O)N([C@@H](C)CO)C[C@@H]1C,-20.6,-12.8
C[C@@H]1CN([C@@H](C)CO)C(=O)c2cc(NS(=O)(=O)c3ccccc3)ccc2O[C@@H]1CN(C)Cc1ccncc1,-2.5,-3.6
COc1ccccc1-c1ccc([C@H]2[C@H](CO)N3CCCCN(C(=O)CN4CCOCC4)C[C@@H]23)cc1,2.9,-7.2
C[C@H]1CN([C@@H](C)CO)C(=O)CCCn2cc(nn2)CO[C@@H]1CN(C)C(=O)c1ccc(N2CCN(C)CC2)cc1,5.6,0.1
COc1ccccc1-c1cnc2c(c1)C(=O)N([C@H](C)CO)C[C@H](C)[C@@H](CN(C)C(=O)c1ccccc1)O2,-0.3,-0.1
CO[C@H]1CN(C)C(=O)c2ccc(NC(=O)c3ccccc3F)cc2OC[C@H](C)N(CC2CC2)C[C@@H]1C,9.5,6.3
Cc1ccc(S(=O)(=O)Nc2ccc3c(c2)C(=O)N([C@H](C)CO)C[C@@H](C)[C@@H](CN(C)C(=O)Cc2ccccc2)OCCCC[C@@H](C)O3)cc1,?,nt
CC(C)CC#Cc1ccc2c(c1)O[C@H](CN(C)C)[C@H](C)CN([C@@H](C)CO)S2(=O)=O,-20.1,-14.2
COc1ccc(S(=O)(=O)N2CC[C@@H]3[C@H](CO)Nc4ccc(C#Cc5cccnc5)cc4[C@@H]32)cc1,-1.6,2.2
C[C@@H]1CN([C@H](C)CO)C(=O)c2cc(NC(=O)Cn3cnnn3)ccc2O[C@@H]1CN(C)Cc1ccc(C(=O)Nc2ccccc2N)cc1,12.7,7.9
CN(C)C(=O)C[C@H]1C[C@H]2c3cc(NC(=O)NC4CCCC4)ccc3O[C@H]2[C@H](CO)O1,10.1,8.4
C[C@@H]1CN([C@@H](C)CO)C(=O)c2cccc(NS(=O)(=O)c3ccc(Cl)cc3)c2O[C@H]1CN(C)Cc1ccc(Oc2ccccc2)cc1,-3.4,-0.9
O=C(Nc1ccccc1)N[C@@H]1CC[C@H](CCn2cc(-c3ccccc3F)nn2)O[C@@H]1CO,-4.2,-5.9

Additional records.
Structure,Vaccinia inh,Vaccinia inh Venus
C[C@H](CO)N1C[C@H](C)[C@@H](CN(C)Cc2cccc(F)c2)OCc2ccccc2-c2ccccc2C1=O,?,nt
N#Cc1cccc(-c2ccc3c(c2)[C@H]2[C@H](CCN2C(=O)c2ccccc2F)[C@@H](CO)N3)c1,?,nt
CC(=O)N(C)C[C@@H]1Oc2cc(-c3cccc(C#N)c3)ccc2S(=O)(=O)N([C@@H](C)CO)C[C@H]1C,26.0,9.3
COCC(=O)N1C[C@@H](C)[C@@H](OC)CN(C)C(=O)c2ccc(NC(=O)C3CCC3)cc2OC[C@@H]1C,12.7,6.8
O=C(Cc1ccncc1)N1C[C@@H]2N[C@H](C1)C2c1ccc(-c2ccccc2)cc1 (some centres undefined),7.6,1.9
CN1C(=O)c2cc(NC(=O)Cc3ccccc3)ccc2OC[C@H]2O[C@@H](CC(=O)NC3CCC3)CC[C@@H]21,-11.4,-8.8
COc1ccc(S(=O)(=O)Nc2ccc3c(c2)C(=O)N([C@@H](C)CO)C[C@H](C)[C@H](CN(C)S(=O)(=O)c2ccc(Cl)cc2)OCCCC[C@@H](C)O3)cc1,-4.5,-7.3
CN(C)C(=O)[C@H]1[C@H](CO)[C@H]2Cn3c(ccc(-c4ccccc4F)c3=O)[C@@H]1N2C(=O)c1cccnc1,7.9,8.4
COc1ccc(CN2C[C@H](O)COC[C@@H]3O[C@H](CC(=O)N4CCc5ccccc5C4)CC[C@H]32)cc1,-20.6,-18.9
C[C@@H]1CCCCO[C@H](CN(C)Cc2ccccc2)[C@H](C)CN([C@H](C)CO)C(=O)c2cc(NC(=O)NC3CCCCC3)ccc2O1,?,nt
COc1ccc(NC(=O)Nc2ccc3c(c2)CC(=O)N([C@H](C)CO)C[C@@H](C)[C@@H](CN(C)Cc2ccccc2)O3)cc1,-29.9,-16.1
Cc1noc(C)c1NC(=O)N(C)C[C@H]1Oc2ccc(N(C)C)cc2CC(=O)N([C@H](C)CO)C[C@H]1C,20.0,-0.1
CNC[C@H]1Oc2cc(C#CCC3CCCC3)ccc2S(=O)(=O)N([C@H](C)CO)C[C@H]1C,?,nt
C[C@@H]1CCCCO[C@H](CN(C)Cc2ccc(C(=O)O)cc2)[C@H](C)CN([C@H](C)CO)C(=O)c2cc(NC(=O)Nc3ccc(F)cc3)ccc2O1,24.6,13.9
O=C(C1=C[C@H](c2csc3ccccc23)C[C@H](OCCCCO)O1)N1CCOCC1,-0.3,1.1
